Screening results as filed in PubChem.
Mtb growth: Mycobacterium tuberculosis H37Rv growth inhibition, putative kinase inhibitor library, confirmatory dose response (AID 2842); one-dose inhibition, % at 10 µg/mL; IC90 in µg/mL for titrated hits; M. tuberculosis H37Rv growth inhibition; higher % means a stronger effect; some inactives read as strong as hits; actives 5.2% (n = 24,000);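 active = confirmed in a dose series; about a fifth of its hits are not listed in these tables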;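 note: bacteria incubated one week before Alamar blue readout; 0% = bacteria only wells and 100% = bacteria with high antibiotic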
Starred values were filed as active, the others as inactive. This is a subset; rates above refer to the full screens.

SMILES	Mtb growth
COc1ccc(-c2nnc3c4cc5c(cc4n(Cc4cccc(C)c4)cc2-3)OCO5)cc1	22.8%
O=c1cc(-c2ccccc2)c2c(O)cc(O)cc2o1	-6.7%
Cn1c(=O)[nH]c(=O)c2c1nc(N1CCC(Cc3ccccc3)CC1)n2CCSc1nc2ccccc2s1	3.4%
CCOc1ccc(C(=O)NCCc2cc3c(OC)ccc(OC)c3[nH]c2=O)cc1	-9.7%
CCOCCn1ccc2c(OCC(=O)NCc3ccco3)cccc2c1=O	-8.3%
Cc1ccc(Cl)cc1NC(=O)Cn1c(=O)n(-c2ccc(F)cc2)c(=O)c2c(C)c(C(=O)N(C)C)sc21	3.3%
CCN1CCN(Cc2c(O)ccc3oc(-c4ccco4)cc(=O)c23)CC1	-5.0%
CC(=O)c1ccc(C(=O)Nc2nnc(-c3ccc(S(C)(=O)=O)cc3)o2)cc1	-5.1%
O=C1C(=O)N(CNc2ncccn2)c2ccccc21	-8.6%
O=C(c1cccs1)N(Cc1ccccc1)c1nnc(C23CC4CC(CC(C4)C2)C3)s1	25.0%
CC(O)Cn1c(N2CCOCC2)nc2c1c(=O)n(C)c(=O)n2C (stereo unspecified)	-8.2%
CCC(CC)C(=O)Nc1nnc(SCc2cc(=O)c(OC(=O)c3ccco3)co2)s1	-2.2%
Cc1cc(NC(=O)CSc2c[nH]c3ccccc23)no1	83.4%
CC(=O)c1sc(NC(=O)CC2CCS(=O)(=O)C2)nc1C (stereo unspecified)	-5.4%
CC1(C)Cc2c(sc(NC(=O)COc3ccc(Cl)cc3)c2C(N)=O)C(C)(C)N1	11.1%
N#Cc1c(N)nc2c(C(N)=O)c(Nc3ccccc3)sc2c1-c1ccccc1	0.2%
COc1cccc(NC(=O)c2ccc(S(=O)(=O)N3CCc4ccccc4C3)cc2)c1	11.3%
COC(=O)CSc1nc2c(c(=O)[nH]c(=O)n2C)n1Cc1cccc(C)c1	11.0%
Cc1cn2c3c(=O)n(CC(=O)OCc4ccccc4)c(=O)n(C)c3nc2n1-c1cccc(Cl)c1	-1.5%
CCOC(=O)COc1cccc2c(=O)n(CC(=O)Nc3cccc4ccccc34)ccc12	-6.7%
CC1C(=O)N2CCCc3cc(NC(=O)c4ccc([N+](=O)[O-])cc4Cl)cc1c32 (stereo unspecified)	8.4%
Cc1cccc(-c2nnc(NC(=O)c3cccc(F)c3)s2)c1	-3.5%
Cc1ccc(C)c(S(=O)(=O)c2cnc(SCC(=O)Nc3ccc(F)cc3F)[nH]c2=O)c1	-12.4%
O=S(=O)(NCCCn1ccnc1)c1ccc(Cl)c(Cl)c1Cl	25.9%
CSc1cccc(NC(=O)CN2N=NC3C(=O)N(c4ccc(C)c(Cl)c4)C(=O)C32)c1 (stereo unspecified)	-10.5%

Next section (3 carried over from the part before).
SMILES	Mtb growth
Cc1ccc(C)c(S(=O)(=O)c2cnc(SCC(=O)Nc3ccc(F)cc3F)[nH]c2=O)c1	-12.4%
O=S(=O)(NCCCn1ccnc1)c1ccc(Cl)c(Cl)c1Cl	25.9%
CSc1cccc(NC(=O)CN2N=NC3C(=O)N(c4ccc(C)c(Cl)c4)C(=O)C32)c1 (stereo unspecified)	-10.5%
O=C(NCC(c1ccco1)N1CCc2ccccc2C1)C(=O)Nc1ccc([N+](=O)[O-])cc1 (stereo unspecified)	-5.2%
Clc1ccc2nc(N3CCN(c4nc5ccccc5s4)CC3)sc2c1	7.2%
C=CCNc1ncnc(N)c1[N+](=O)[O-]	-0.2%
CCOC(=O)c1nn(-c2ccc(C(F)(F)F)cc2)c(=O)c2c(NC(=O)CCc3ccccc3)scc12	6.2%
COc1ccc(CCn2c(C)cn3c4c(=O)n(Cc5ccc(C)cc5)c(=O)n(C)c4nc23)cc1OC	0.7%
Nc1nc(SCc2ccc([N+](=O)[O-])cc2)[nH]c(=O)c1NC(=O)c1ccccc1	-5.2%
Cn1c(=O)[nH]c(=O)c2c1nc(NCCCN1CCOCC1)n2CCCOc1ccccc1	-7.5%
COc1ccc2nc(N3CCCC3)sc2c1	8.36µg/mL*
O=C(Nc1nc(-c2nc3ccccc3s2)cs1)c1ccc(Oc2ccccc2)cc1	3.5%
Nc1ncnc(NCCc2c[nH]c3ccccc23)c1[N+](=O)[O-]	-0.5%
COc1ccc(CCC(=O)Nc2cc3c4c(c2)CCC(=O)N4CCC3)cc1	6.0%
O=C1CC(NS(=O)(=O)c2ccccc2F)CN1c1ccc(Cl)cc1 (stereo unspecified)	11.9%
Cc1ccc(S(=O)(=O)N2CCCC2C(=O)Nc2cc(C)[nH]n2)cc1 (stereo unspecified)	-17.9%
CCN1C(=O)NC(c2cccc(F)c2)C(C(=O)OC)=C1C (stereo unspecified)	-10.9%
COc1ccc(-c2nc3c(c(=O)[nH]2)Cc2cc(Cl)ccc2O3)c(OC)c1	-3.0%
O=C(Nc1cc(Cl)cc(Cl)c1)c1ccc(S(=O)(=O)N2CCCC2)cc1	-5.2%
Cc1ccc(-c2nc(C(N)=O)c3[nH]c(=O)n(-c4ccc(C(C)(C)C)cc4)c3n2)o1	-14.2%
COc1cccc(/C=N\Nc2cn[nH]c(=O)c2Cl)c1O	-1.8%
CC(=O)c1ccc(C(=O)Nc2sc3c(c2C(N)=O)CCCCC3)cc1	-15.3%
CC(=O)c1cccc(N/C=C(\C#N)c2nc(-c3ccc(F)cc3)cs2)c1	7.5%
NC(=O)C1CCN(c2ncnc3nc[nH]c23)CC1	0.6%
CCc1ccc(NC(=O)CS(=O)(=O)CCCN2C(=O)c3ccccc3C2=O)cc1	-1.6%
CCCCCc1nnc(NC(=O)CC2CCS(=O)(=O)C2)s1 (stereo unspecified)	3.9%
COc1ccc(Br)cc1-c1nc(C(N)=O)c2[nH]c(=O)n(-c3ccc(F)cc3)c2n1	10.5%
O=C(CC1Sc2ccccc2NC1=O)Nc1cccc(C(F)(F)F)c1 (stereo unspecified)	10.5%

Molecules above that contain a cyano group:
SMILES	Mtb growth
N#Cc1c(N)nc2c(C(N)=O)c(Nc3ccccc3)sc2c1-c1ccccc1	0.2%
CC(=O)c1cccc(N/C=C(\C#N)c2nc(-c3ccc(F)cc3)cs2)c1	7.5%

Carrying on.
SMILES	Mtb growth
O=C1N=c2ccccc2=C1c1sc(=S)n(-c2cccc(C(F)(F)F)c2)c1O	-1.0%
O=C(CSc1ncnc2ccccc12)Nc1ccccc1F	3.1%
Cc1cn2c3c(=O)[nH]c(=O)n(C)c3nc2n1-c1ccccc1N	7.5%
COc1ccc2sc(Nc3nc4c(s3)C(=O)CC(C)(C)C4)nc2c1	62.2%
CCOC(=O)c1c(NC(=O)c2cccc3ccccc23)sc2c1CCN(CC)C2	5.45µg/mL*
CC1=CC2C(c3ccccc3)=NC(N=Nc3c(O)[nH]c4ccccc34)=NC2C=C1 (stereo unspecified)	11.6%
CCOC(=O)c1oc2ccccc2c1NC(=O)Cc1cccc(C)c1	18.6%
Cc1ccc(NC(=O)Cn2c3c(sc2=O)C2c4cc([N+](=O)[O-])ccc4OCC2CS3)cc1 (stereo unspecified)	4.2%
Cc1ccc2nc(NC(=O)CSc3nccn3-c3ccccc3)sc2c1	2.5%
O=C(Cn1cc(S(=O)(=O)Cc2ccccc2)c2ccccc21)N1CCN(c2ccccc2F)CC1	-4.3%
CCOC(=O)Cn1c(=O)c2c(nc3n(-c4cccc(Cl)c4)c(-c4ccccc4)cn23)n(C)c1=O	-8.5%
CC1=C(C(N)=O)C(c2ccccc2F)n2nc(-c3cccc(Cl)c3)nc2N1 (stereo unspecified)	5.6%
Cc1n[nH]c(=O)nc1NCCc1nc2ccccc2[nH]1	-8.6%
Cc1c(C(=O)Oc2cc(N)n(S(C)(=O)=O)n2)cccc1[N+](=O)[O-]	8.0%
COc1ccc(NC(=O)c2sc3nc(C)cc(-c4ccccc4)c3c2N)cc1	-8.8%
COC(=O)c1ccc(-c2csc(NC(=O)c3cc(-c4cccs4)nc4ccccc34)n2)cc1	40.5%
COC(=O)c1ccc2nc(NC(=O)C(C)C)sc2c1	12.6%
Cn1c(=O)[nH]c(=O)c2c1nc(SCCCO)n2Cc1ccccc1Cl	-1.1%
COc1ccc(C(=O)Nc2c[nH]c(=O)[nH]c2=O)cc1	-6.0%
Cc1cc(=O)oc2cc(OC(C)C(=O)c3ccccc3)ccc12 (stereo unspecified)	2.7%
O=C(CCOc1ccccc1)Nc1nc(-c2ccc3c(c2)CCCC3)cs1	18.2%
COc1ccc2oc(=O)c(C(=O)NC3=C(C#N)CCC3)cc2c1	-17.6%
Cc1ccc(-n2ncc3c(SCC(=O)Nc4cccc([N+](=O)[O-])c4)ncnc32)c(C)c1	-4.3%
N#Cc1ccc(C(=O)Nc2ccccc2Oc2ccccc2)cc1	5.2%
Clc1ccc(-n2ncc3c(Nc4cccc(Cl)c4)ncnc32)cc1	12.2%

Retrieved one by one from the list above:
SMILES	Mtb growth
COc1ccc(CCC(=O)Nc2cc3c4c(c2)CCC(=O)N4CCC3)cc1	6.0%
Cc1cccc(-c2nnc(NC(=O)c3cccc(F)c3)s2)c1	-3.5%
COc1cccc(/C=N\Nc2cn[nH]c(=O)c2Cl)c1O	-1.8%
COc1ccc(Br)cc1-c1nc(C(N)=O)c2[nH]c(=O)n(-c3ccc(F)cc3)c2n1	10.5%
CCOC(=O)COc1cccc2c(=O)n(CC(=O)Nc3cccc4ccccc34)ccc12	-6.7%
Cc1ccc(NC(=O)Cn2c3c(sc2=O)C2c4cc([N+](=O)[O-])ccc4OCC2CS3)cc1 (stereo unspecified)	4.2%

Later entries
SMILES	Mtb growth
Cc1ccc(-n2c(N)cc(=O)nc2SCC(=O)Nc2nc3ccc(C)cc3s2)cc1	9.7%
C=CCOC(=O)C1=C(C)Nc2[nH]c(=O)[nH]c(=O)c2C1c1ccc(F)cc1 (stereo unspecified)	-6.6%
Cn1c(=O)c2c(nc(N3CCN(Cc4ccccc4)CC3)n2CCSc2nc3ccccc3s2)n(C)c1=O	2.9%
CCN1CCN(C(c2cccs2)c2sc3ncnn3c2O)CC1 (stereo unspecified)	4.4%
Cn1c(=O)c2c(nc(Sc3nc4ccccc4[nH]3)n2Cc2ccccc2Cl)n(C)c1=O	-7.8%
CCOc1ccc(NC(=S)NCCc2cc3cc(C)c(C)cc3[nH]c2=O)cc1	23.9%
Cc1cccc2sc(NC(=O)CCCS(=O)(=O)c3ccccc3)nc12	6.5%
Cc1cccc(NC(=O)CSc2nc(N)c(NC(=O)c3cccs3)c(=O)[nH]2)c1C	-8.7%
COc1ccc(C)cc1-n1c(-c2ccccc2)cn2c3c(=O)n(CC(N)=O)c(=O)n(C)c3nc12	4.9%
O=C1Cc2cc(NC(=O)c3c(F)cccc3Cl)ccc2N1	-21.2%
O=C(Nc1ccc2c(c1)OCO2)c1oc2ccccc2c1NC(=O)C1CCCCC1	-2.8%
CC(C)N1CCc2c(sc(NC(=O)c3ccc4ncsc4c3)c2C(N)=O)C1	5.7%
NC(=O)c1oc2ccccc2c1NC(=O)C(=O)c1c[nH]c2ccccc12	-5.3%
CCOC(=O)C1=C(C)Nc2[nH]c(=O)[nH]c(=O)c2C1c1cccs1 (stereo unspecified)	16.1%
Nc1nc(SCC(=O)N2CCN(c3ccccc3)CC2)[nH]c(=O)c1NC(=O)c1ccc(F)cc1	-5.3%
CCOC(=O)c1nn(-c2ccccc2)c(=O)c2c(NC(=O)c3ccc(OC)cc3OC)scc12	0.9%
O=C1C(Cl)=C(NCCc2ccccc2)C(=O)N1c1ccc(Cl)cc1	-0.8%
Cc1cc2cc(CCNC(=O)C(C)Oc3ccccc3)c(=O)[nH]c2cc1C (stereo unspecified)	20.1%
Cc1nc2c(ccc3nc(NC(=O)c4ccc(Oc5ccccc5)cc4)sc32)s1	0.7%
CC(=O)N1CCc2c(sc(NC(=O)CCSc3ccc(Cl)cc3)c2C#N)C1	-2.7%
CC(Cl)C(=O)Nc1nnc(C(C)C)s1 (stereo unspecified)	-6.5%
COc1ccc(C(=O)Nc2nnc(-c3ccccc3Cl)s2)cc1	4.7%
CCCCOc1ccc(C(=O)Nc2sc3c(c2C(N)=O)CCN(C(C)C)C3)cc1	11.4%
Cc1cc(NC(=O)CSc2nccn2-c2ccc([N+](=O)[O-])cc2)no1	-5.2%
COc1ccccc1NC(=O)CSc1nc2c(oc3ccccc32)c(=O)n1-c1ccc(C)cc1	7.5%

Some of these compounds in order of molar mass, highest first.
SMILES	Mtb growth
CCOC(=O)c1nn(-c2ccccc2)c(=O)c2c(NC(=O)c3ccc(OC)cc3OC)scc12	0.9%
Cn1c(=O)c2c(nc(Sc3nc4ccccc4[nH]3)n2Cc2ccccc2Cl)n(C)c1=O	-7.8%
CCN1CCN(C(c2cccs2)c2sc3ncnn3c2O)CC1 (stereo unspecified)	4.4%

Remaining list, next part:
SMILES	Mtb growth
Cc1ccc(C(C)C)c(OCC(=O)Nc2ccc(C(N)=O)cc2)c1	-20.2%
O=c1[nH]c2ccccc2nc1/C=C/c1cccc([N+](=O)[O-])c1	-5.0%
Cc1ccc(Cn2c(SCCC(C)C)nc3c2c(=O)[nH]c(=O)n3C)cc1	13.8%
O=C(Nc1nnc(-c2ccc(F)cc2)s1)c1cc(Br)ccc1Cl	-4.5%
CCCc1cc(=O)[nH]c2nnc(SCc3ccccc3)n12	-6.6%
O=C(NCc1ccccc1)c1cnc2sccn2c1=O	-10.8%
CC(=O)Nc1cccc(NS(=O)(=O)c2c[nH]c(=O)[nH]c2=O)c1	3.6%
COc1ccc(C(=O)c2cn(Cc3ccccc3)c3cc4c(cc3c2=O)OCCO4)cc1OC	1.5%
NC(=O)c1ccsc1NC(=O)c1cccc(Cl)c1	35.6%
Cc1ccccc1-c1nnc(NC(=O)c2cccc(C(F)(F)F)c2)s1	12.7%
Nc1nc(SCC(=O)NCc2ccco2)[nH]c(=O)c1NC(=O)c1ccccc1F	-7.8%
N#Cc1c(NC(=O)c2ccc(S(=O)(=O)N3CCc4ccccc4C3)cc2)sc2c1CCCC2	-1.9%
O=C(CCOc1ccccc1)Nc1nnc(-c2ccc3c(c2)OCCO3)o1	95.9µg/mL*
CCOC(=O)c1nn(-c2ccccc2)c(=O)c2c(NC(=O)c3cc4ccccc4o3)scc12	-7.8%
CN(C)S(=O)(=O)c1ccc(C(=O)Nc2nc3c(s2)CCCC3)cc1	12.9%
